LANA-H2A inh = blocks KSHV LANA binding to histone H2A/H2B. Q9QR71. cell-free LANA-H2A/H2B peptide, fluorescence polarization. AID 2629. hit rate 0.6% among 320,000. inhibition, % (no concentration beside the values); in the data active means inhibition mostly above about 10%, no sharp cut-off; inactive means mostly below about 6.7%;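 further: stock transfer was 7.5 nL into about 10 µL; 0% = median of vehicle wells and 100% = median of positive control wells; one replicate is shown; the record names a cut of 25% in any replicate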
HNF4A DNA FP = change in binding of human HNF4 alpha to DNA; P41235; HNF4a-FITC DNA binding, fluorescence polarization, 1 h; activity change, % at 10 µM; hit rate 0.3% among 360,000; AID 1224865; in the data active means activity change above about 30%, passing the limit was not always enough;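 further: controls were the assay level and a saturating level of protein; the project sought stronger binding though the title names inhibitors; some compounds called inactive have numbers as strong as hits; positive values seem to mean higher polarization but the record does not say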
FGF22 binding = shifts melting point of recombinant human FGF22 | Q9HCT0 | recombinant FGF22 thermal shift, SYPRO orange fluorescence; percent of sucrose octasulfate shift, DMSO zero | calls only at 9.99 µM | hit rate 1.5% among 340,000;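 active means melting point raised past a set limit in the mean and every replicate; three in four hits are not shown here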
Target sequence (Q9HCT0 whole entry, looked up): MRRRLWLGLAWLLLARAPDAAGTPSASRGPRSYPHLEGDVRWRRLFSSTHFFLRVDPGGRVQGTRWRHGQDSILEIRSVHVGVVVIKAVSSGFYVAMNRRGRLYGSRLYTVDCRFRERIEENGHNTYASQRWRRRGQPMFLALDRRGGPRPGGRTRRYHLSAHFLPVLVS
B2AR ag = agonists of human beta-2 adrenergic receptor inducing internalization | hit rate 0.43% among 340,000 | Am2.2-beta2AR cells, FAP receptor internalization, flow cytometry; reference of the scale not given here | response, % (test concentration not listed);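 active means response above a set limit, near 3 SD of response in nonfluorescent compounds, cut at about 42% in these data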;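 further: stock transfer was 100 nL into about 11 µL; a reference agonist was the positive control; negative values mostly stem from fluorescent compounds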
ALR H2O2 inh = human ALR oxidase inhibition via reduced H2O2. P55789. purified ALR, DTT oxidation, H2O2 HRP-luminol luminescence. inhibition, % (test concentration not listed). hit rate 3.8% among 290,000;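 active means mean and each replicate at 75% or more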;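 further: stock transfer was 7.5 nL into about 7.5 µL; 0% = neutral wells and 100% = wells with inactivated enzyme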
Target sequence (P55789 whole entry, looked up): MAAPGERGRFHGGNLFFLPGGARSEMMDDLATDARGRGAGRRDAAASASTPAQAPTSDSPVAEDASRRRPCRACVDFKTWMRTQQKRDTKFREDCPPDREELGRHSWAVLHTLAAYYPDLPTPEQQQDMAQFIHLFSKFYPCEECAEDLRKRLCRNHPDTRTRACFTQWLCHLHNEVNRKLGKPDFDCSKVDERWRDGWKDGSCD
UCH37 inh = inhibitors of human deubiquitinating enzyme UCH37; purified proteasome/UCH37, Ub-AMC cleavage fluorescence; hit rate 0.33% among 330,000; AID 588478; Q9Y5K5; inhibition, % (concentration not given with the values);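 active means mean of two replicates above 20%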;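 further: 0% = compound-free wells with enzyme and 100% = wells lacking proteasome; stock transfer was 100 nL into about 20 µL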
Target sequence (Q9Y5K5 whole entry, looked up): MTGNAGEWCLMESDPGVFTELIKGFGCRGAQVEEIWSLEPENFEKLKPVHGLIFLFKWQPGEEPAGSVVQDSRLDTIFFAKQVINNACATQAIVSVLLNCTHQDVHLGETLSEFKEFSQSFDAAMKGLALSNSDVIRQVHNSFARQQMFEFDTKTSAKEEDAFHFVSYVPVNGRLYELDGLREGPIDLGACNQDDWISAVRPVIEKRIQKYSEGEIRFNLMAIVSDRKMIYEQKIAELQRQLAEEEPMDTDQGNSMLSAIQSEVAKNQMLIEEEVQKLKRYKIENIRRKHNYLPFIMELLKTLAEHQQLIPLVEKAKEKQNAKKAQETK
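Material: human UCH37 enzyme supplied as purified proteasome complex. Measure: % inhibition of Ub-AMC cleavage fluorescence. Medium: pH 7.4 Tris-HCl (50 mM) with ovalbumin, ATP-MgCl2, DTT. Times: 30 min preincubation with enzyme, 25 min cleavage at room temperature. Detection: AMC fluorescence intensity at 355/460 nm.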
Ecoli growth = blocks Escherichia coli growth | OD600 absorbance (concentration not given with the values) | AID 1053175 | OD600, 23 h; stronger effect = lower value | hit rate 0.21% among 330,000;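 active means OD600 absorbance below the run mean of sample wells minus 3.6 SD, in any replicate, cut at about 0.56 in these data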;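 further: stock transfer was 300 nL into about 60 µL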
* hit, by the source's call; i = inactive; nt = no result given. A portion of the library. The share of hits here may be higher or lower than overall.

SMILES	LANA-H2A inh	HNF4A DNA FP	FGF22 binding	B2AR ag	ALR H2O2 inh	UCH37 inh	Ecoli growth
CCOC(=O)N1CCN(C(=O)CCS(=O)(=O)c2ccc3c(c2)CC(C)N3C(=O)CC)CC1 (stereo unspecified)	-3.1	-0.5	i	3	-5	5.5	0.74
CCSc1nc(O)c(Cc2ccccc2)c(=O)[nH]1	3.7	-7.9	nt	-1	-13	-0.5	0.71
CCOC(=O)c1c(C)[nH]c(C(=O)N2CCc3cc(OC)c(OC)cc3C2)c1C	-2.2	-6.5	i	5	3	0.2	0.63
COc1ccc([C@H]2/C=C\CN(C(=O)c3ccccc3)[C@@H](C)C(=O)N2Cc2ccc(F)cc2)cc1	-2.6	0.2	i	3	-5	-1.0	nt
CC1(C(=O)NCc2ccc(Cl)c(Cl)c2)Oc2cccnc2NC1=O (stereo unspecified)	-1.6	-0.1	i	5	nt	1.6	0.7
COc1cccc(C2=NOC(C(=O)NCC3CCCO3)C2)c1 (stereo unspecified)	0.1	4.3	nt	2	-2	4.3	0.74
CC(=O)c1c(C)n(CCc2ccc(Cl)cc2)c2ccc(O)cc12	3.4	6.2	i	7	nt	3.4	0.66
O=C(O)c1ccc(OCc2occc2C(=O)O)cc1	-4.3	-1.7	nt	-4	-5	5.8	0.67
C=CCc1c(NCCO)nc(C)[nH]c1=O	0.8	3.3	nt	4	-8	3.3	0.65
CCCN(CCC)CCCNC(=O)Cn1cnc2sc(C)c(S(=O)(=O)N3CCC(C)CC3)c2c1=O	-3.5	-1.5	i	-2	4	0.3	0.68
CNC[C@H](CC1CCCCC1)NC[C@H](CO)NCC1(c2ccccc2)CC1	-1.4	0.3	i	5	-32	1.2	nt
CC1CCN(C(=O)COC(=O)c2nn(C)c(=O)c3ccccc23)CC1	3.1	-5.2	i	0	4	4.0	0.69
CCN1CCN(S(=O)(=O)c2ccc(Cl)c(C(=O)NC3CCCC3)c2)CC1	5.7	2.2	i	0	5	2.0	0.65
Cc1ccc(Cl)cc1NC(=S)N(Cc1cccnc1)Cc1ccccc1Cl	2.5	-1.9	i	1	0	4.5	0.68
Cc1c(Cc2ccccc2)c(=O)oc2cc(OCC(=O)NC(Cc3ccc(Cl)cc3)C(=O)O)ccc12 (stereo unspecified)	-2.8	0.1	nt	4	66	-188	0.69
C=CCSc1nnc(C)c(/C=C/Nc2ccc(Cl)cc2)n1	-1.0	51*	nt	-89	4	4.3	0.68
O=C1CCCC2=C1C(c1cccs1)n1nc(SCc3ccccc3F)nc1N2 (stereo unspecified)	-2.3	-1.0	nt	-8	nt	-8.5	0.71
C=C(C)Cn1c(CCCNC(=O)CCC)nc2ccccc21	1.6	0.4	nt	-6	4	2.4	0.7
Cc1cccc(NC(=O)C(NS(=O)(=O)c2ccc3c(c2)CCC(=O)N3)c2ccccc2)n1 (stereo unspecified)	2.5	1.0	nt	5	nt	2.1	0.74
CCOC(=O)c1c(C)[nH]c(C)c1S(=O)(=O)NCCN1CCN(c2ccccc2F)CC1	0.3	-2.8	i	9	2	1.8	0.64

Record cards, as listed above.
Listed for Cc1c(Cc2ccccc2)c(=O)oc2cc(OCC(=O)NC(Cc3ccc(Cl)cc3)C(=O)O)ccc12 (stereo unspecified) : LANA-H2A inh = -2.8; HNF4A DNA FP = 0.1; FGF22 binding = nt; B2AR ag = 4; ALR H2O2 inh = 66; UCH37 inh = -188; Ecoli growth = 0.69
Listed for O=C1CCCC2=C1C(c1cccs1)n1nc(SCc3ccccc3F)nc1N2 (stereo unspecified) : LANA-H2A inh = -2.3; HNF4A DNA FP = -1.0; FGF22 binding = nt; B2AR ag = -8; ALR H2O2 inh = nt; UCH37 inh = -8.5; Ecoli growth = 0.71
Listed for C=CCSc1nnc(C)c(/C=C/Nc2ccc(Cl)cc2)n1 : LANA-H2A inh = -1.0; HNF4A DNA FP = 51*; FGF22 binding = nt; B2AR ag = -89; ALR H2O2 inh = 4; UCH37 inh = 4.3; Ecoli growth = 0.68

The list goes on.
SMILES	LANA-H2A inh	HNF4A DNA FP	FGF22 binding	B2AR ag	ALR H2O2 inh	UCH37 inh	Ecoli growth
Cc1ccc(OCC(=O)NNc2c3ccccc3nc3ccccc23)cc1	0.0	-0.2	i	3	96*	3.9	0.73
CCOC(=O)C1CCN(c2c(N3CCCC(C(=O)OCC)C3)c(=O)c2=O)CC1 (stereo unspecified)	2.4	-1.4	i	11	-14	9.4	0.72
CCN(C(=O)COC(=O)c1[nH]c(C)c(C(C)=O)c1C)c1c(N)n(Cc2ccccc2)c(=O)[nH]c1=O	-0.6	1.9	i	22	2	3.3	0.67
CC1Cc2ccccc2N1C(=O)c1cnsn1 (stereo unspecified)	4.9	0.1	nt	-2	-3	2.9	0.73
CCOC(=O)c1cnc(SCC(=O)Nc2ccc(N3CCOCC3)cc2)nc1N	1.5	nt	nt	nt	-16	-2.8	0.65
[N-]=[N+]=CC(=O)c1ccnc(C(=O)C=[N+]=[N-])c1	-2.7	0.1	nt	-5	-32	4.2	0.56*
COc1ccc(N2C(=O)CC(C3CCCO3)C2=O)cc1 (stereo unspecified)	-9.9	-1.2	i	-1	33	-0.1	0.69
Cc1nc2ncnn2c(C)c1CCC(=O)NCCCN1CCN(c2cccc(Cl)c2)CC1	-0.1	5.3	nt	-1	24	1.4	0.67
c1ccc(CSCc2ccccc2)cc1	-7.5	12	i	-3	1	3.4	0.74
Clc1ccc(C2=Nn3c(nnc3-c3n[nH]c4c3CCC4)SC2)cc1	0.0	2.6	nt	3	-11	5.1	0.79
COC(=O)c1c(NC(=S)Nc2ccccc2Cl)sc(C)c1C	-1.1	-1.7	nt	-3	0	6.9	0.7
CCOC(=O)CC1=Nc2ccccc2NC(=O)C1	2.9	-2.9	nt	-21	-8	2.2	0.65
Cn1cc(Cl)c(-c2nc3ccccc3[nH]2)n1	4.7	-1.4	nt	-10	-10	-3.2	0.68
COc1ccc(CCNC(=O)[C@H](C)N2C(=O)N3CCc4c([nH]c5ccccc45)[C@@]3(C)C2=O)cc1OC	-2.0	0.6	i	-26	-15	2.8	0.7
CNC(=O)CC1C(=O)N(c2ccc(Cl)cc2)C(=S)N1CCc1ccc(OC)c(OC)c1 (stereo unspecified)	-0.5	3.5	i	11	-89	0.5	0.72
CC(=O)c1cc2ccccc2oc1=O	nt	4.9	i	7	-5	-1.1	0.68
Cc1ccc(C(C)NC(=O)Cc2cccs2)c(C)c1 (stereo unspecified)	7.2	1.8	i	-1	-3	3.8	0.6
COc1ccc(CCNC(=O)C2(c3ccccc3)CC2)cc1	3.3	7.2	i	2	-8	2.2	0.67
CCCNC(=O)C(CC)NC(=O)c1cccc([N+](=O)[O-])c1 (stereo unspecified)	-2.6	-1.4	i	1	-7	-1.2	0.65
Nc1ccc(N2CCN(c3ccc(Cl)c(Cl)c3)CC2)cc1	-2.1	4.6	i	-11	58	2.0	0.69
COc1ccc(OC)c2nc3c(cc12)CCC3	-1.1	1.9	i	2	-3	-1.7	0.64
O=C1NC(=S)N/C1=C\c1ccccc1OCc1ccc(C(=O)O)cc1	-3.4	3.3	i	1	nt	5.5	0.68
Cc1cc(C)c2c(c1)OC(=O)CC2c1ccccc1C (stereo unspecified)	nt	-5.7	i	-1	nt	-1.1	0.7
Cc1nc(-c2ccc(F)cc2)c(CC(=O)Nc2cc(S(=O)(=O)N3CCCCC3)ccc2C)s1	-0.4	5.5	i	1	-9	1.2	0.65
CCC(=O)Nc1c(C)ccc2nsnc12	0.9	3.2	nt	2	-10	-2.2	0.71
COC(=O)c1c(NC(=O)COC(=O)[C@@H](NS(=O)(=O)c2ccc(C)cc2)C(C)C)sc2c1CCC2	nt	0.5	nt	0	nt	-7.7	0.72
CC(=O)N(C)c1ccc(NC(=O)C(c2ccccc2)c2ccccc2)cc1	-1.2	3.8	i	4	-3	2.8	0.69
CCCCCCCCNC(CO)(CO)CO	0.9	-3.3	i	-2	nt	2.3	0.69
CC(C)NC(=S)N/N=C/c1cccnc1	2.5	-1.4	i	8	11	nt	nt
COc1ccc(OCC(O)CNC(=O)Nc2ccc(F)cc2)cc1 (stereo unspecified)	-3.2	-4.4	i	-2	-8	1.9	0.66
COc1ccc(NC(=O)CSc2ccc3nnc(-c4cccnc4)n3n2)cc1	11	5.0	i	13	-3	2.5	0.69
N#Cc1ccccc1NC(=O)C(=O)NCC1CCCN1S(=O)(=O)c1cccs1 (stereo unspecified)	-8.0	-1.6	i	0	nt	-1.8	0.64
COc1cc([N+](=O)[O-])c(N2CCOCC2)c([N+](=O)[O-])c1OC	-5.5	3.2	i	1	7	7.5	0.67
O=c1onc(-c2cccs2)n1Cc1ccccc1	0.4	1.9	nt	-2	1	6.5	0.74
S=c1nc(-c2cccc(Cl)c2)[nH][nH]1	5.3	1.8	i	1	92*	0.4	0.66
N=C(N)SCCc1cnc[nH]1	-1.7	2.8	i	-3	nt	-1.1	0.67
COc1cc(/C=C/C(=O)OCC(=O)Nc2cc(C(F)(F)F)ccc2N2CCOCC2)ccc1O	-0.6	4.8	i	-1	-16	-4.4	0.63
Cc1nnc(SCC(=O)N(CC(C)C)c2c(N)n(Cc3ccccc3)c(=O)[nH]c2=O)n1N	5.6	2.8	nt	-3	10	0.9	0.68
CC1=C([N+](=O)[O-])C(c2cccc(Br)c2)C2=C(N1)c1ccccc1C2=O (stereo unspecified)	3.5	5.2	nt	19	0	9.2	0.65
CCN(C(=O)CSc1nc2cc(S(=O)(=O)N(CC)CC)ccc2n1CC)C1CCS(=O)(=O)C1 (stereo unspecified)	-2.1	-3.3	i	3	-13	1.6	0.71
Cc1cc([N+](=O)[O-])nn1CCCC(=O)N1CCN(c2ccccc2)CC1	-1.2	1.5	i	-18	98*	-0.1	0.69
Cc1ccc(OCC(=O)N(C)CC(=O)Nc2ccc(N3CCOCC3)cc2)cc1	5.5	2.2	i	-5	71	0.4	0.67
Cc1ccccc1C(=O)Nc1ccnn1C1CCN(C(=O)c2cnsn2)CC1	-1.4	2.4	nt	-1	-9	-0.7	0.67
CC1(C)Oc2ccc(C(=O)Nc3ccccc3F)cc2N(CC(=O)N2CCOCC2)C1=O	1.1	-1.9	i	-2	-5	0.6	0.7
CC/C(O)=C1\C(=O)CC(C)(C)CC1=NCCc1nc2ccccc2[nH]1	-4.3	1.9	i	-6	0	nt	nt
CCCCSc1cc(=O)n(-c2ccccc2)nc1C(=O)OCC	0.6	2.1	nt	1	41	5.2	0.69
CC(=O)Nc1cccc(N(C(=O)C2COc3ccccc3O2)C(C(=O)NC2CCCCC2)c2cn(C)nc2C)c1 (stereo unspecified)	2.9	2.2	i	0	-6	0.8	0.68
O=C(NCc1nnnn1-c1cccc(F)c1)c1ccc(S(=O)(=O)N2CCOCC2)cc1	1.8	0.2	i	5	-1	1.3	0.62
CCOc1ccccc1OCCN1CCCC1	-2.8	0.9	i	4	-3	2.5	0.66
CCC(C)NC(=O)C1CCN(C(=O)c2ccccc2)CC1 (stereo unspecified)	1.8	-1.4	i	-1	-3	-0.3	0.65
Cc1cc(C)cc(N(C(=O)CNS(=O)(=O)c2ccccc2)C(C(=O)NCc2ccccc2)c2ccc(C)o2)c1 (stereo unspecified)	-2.1	-3.6	i	1	-3	0.8	0.71
CC1(C)CC(=O)C=C(NCc2ccc(Cl)c(Cl)c2)C1	-0.6	-1.5	nt	0	3	2.1	0.7
C=CCn1c(SCC(=O)N(C)C)nc2sc3c(c2c1=O)CCC3	5.3	1.8	i	-10	-2	1.6	0.71

Some of these compounds in order of their number in ALR H2O2 inh, lowest first:
SMILES	LANA-H2A inh	HNF4A DNA FP	FGF22 binding	B2AR ag	ALR H2O2 inh	UCH37 inh	Ecoli growth
Cc1ccccc1C(=O)Nc1ccnn1C1CCN(C(=O)c2cnsn2)CC1	-1.4	2.4	nt	-1	-9	-0.7	0.67
Cc1cc(C)cc(N(C(=O)CNS(=O)(=O)c2ccccc2)C(C(=O)NCc2ccccc2)c2ccc(C)o2)c1 (stereo unspecified)	-2.1	-3.6	i	1	-3	0.8	0.71
CC1(C)CC(=O)C=C(NCc2ccc(Cl)c(Cl)c2)C1	-0.6	-1.5	nt	0	3	2.1	0.7

High-throughput results: PubChem BioAssay, several laboratories
